# Screening results from PubChem BioAssay.
# ClpP mod: qHTS Assay for Activators of ClpP; actives 1.9% (n = 340,000); Potency, µM (top dose mostly 57.5 µM), without a hit: at the highest dose activity change, negative = active; AID 651965, 2013; ATP-dependent Clp protease proteolytic subunit (Bacillus subtilis (strain 168)), P80244; purified B. subtilis ClpP, FRET peptide cleavage, 20 min; active = well fitted falling curve with a large enough effect; inconclusive = small, poorly fitted or top-dose-only effect; inactive = no such curve, though single readings can be large or run the other way; note: potency is the fitted concentration of half-maximal effect; the source files actives as falling curves though it sought activators and does not explain the sign; nearly all actives have a fitted effect of over 65% in size; many hits overshoot -100%
# Target sequence (P80244 whole entry, looked up): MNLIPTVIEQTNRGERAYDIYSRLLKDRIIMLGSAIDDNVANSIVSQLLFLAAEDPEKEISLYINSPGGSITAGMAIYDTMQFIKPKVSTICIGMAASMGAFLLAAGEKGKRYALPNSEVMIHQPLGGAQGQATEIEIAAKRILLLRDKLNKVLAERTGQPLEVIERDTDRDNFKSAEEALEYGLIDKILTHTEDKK
#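 Buffer: 100 mM Tris/HCl pH8, 100 mM KCl, 0.05% low protease BSA, 2.5% glycerol, 0.01% Tween-20. ClpP 10 microg/mL final; 20 min RT; delta FRET normalized to ADEP and DMSO controls.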
# Menin-MLL FL inh: displaces fluorescein MLL peptide from human menin | Fluorescence polarization, fluorescein-MLL peptide displacement from menin | FP activity change, % at 61.4 µM | 290,000 tested, under 10 active | AID 1766; inconclusive = falling polarisation curve, or a change in total fluorescence; inactive = total fluorescence flat and polarisation flat or rising; no compound was filed as active; the % refers to the polarisation; negative = inhibition;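 note: % of control where 0% means no effect; inhibitors lower the polarisation; unlabelled MLL peptide was the positive control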
# TRPML1 agonist: activates the human TRPML1 channel | TRPML1-expressing cells, Ca2+ dye fluorescence, FDSS; host cell line not named in the record; reference of the full effect not given here | actives 0.12% (n = 410,000) | AID 624414 | Q9GZU1 | activation, % (test concentration not listed); in the data active = activation above about 50%; inconclusive = about 30% to 50%; inactive = below about 30%; note: 0% is about no effect; the text of the record puts the active cut at 80%
# Target sequence (Q9GZU1 whole entry, looked up): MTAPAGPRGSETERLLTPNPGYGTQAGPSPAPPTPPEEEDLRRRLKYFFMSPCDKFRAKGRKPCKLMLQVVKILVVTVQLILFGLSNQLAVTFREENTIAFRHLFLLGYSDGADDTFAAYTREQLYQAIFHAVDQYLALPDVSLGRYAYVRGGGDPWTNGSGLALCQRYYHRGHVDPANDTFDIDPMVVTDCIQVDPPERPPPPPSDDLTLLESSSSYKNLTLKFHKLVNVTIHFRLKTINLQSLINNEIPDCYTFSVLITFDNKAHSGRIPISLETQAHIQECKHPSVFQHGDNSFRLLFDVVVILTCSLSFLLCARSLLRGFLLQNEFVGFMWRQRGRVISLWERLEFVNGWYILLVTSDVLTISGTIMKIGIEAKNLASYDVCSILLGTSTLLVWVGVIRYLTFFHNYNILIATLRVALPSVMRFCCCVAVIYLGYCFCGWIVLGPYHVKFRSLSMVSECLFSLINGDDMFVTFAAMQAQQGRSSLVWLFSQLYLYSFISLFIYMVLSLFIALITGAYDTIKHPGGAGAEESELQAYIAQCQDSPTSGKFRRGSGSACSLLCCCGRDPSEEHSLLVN
#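 Kinetic FDSS Ca2+ read in Tet-induced TRPML1-DL cells (ABD Ca8 dye plus quencher, 45-90 min RT loading): baseline, then compound, then 110 s agonist window; EC80 agonist 54-4 at 4uM final added afterwards for a 110 s antagonist window.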
# gsp ag: agonists of gsp mutant (McCune-Albright syndrome). AID 624287. Potency, µM (titrated, usually from 76.9 µM), without a hit: top-dose activation (cAMP increase), actives largely listed as activators. actives 0.13% (n = 340,000). gsp mutant cells, cAMP HTRF, 30 min; control for the full effect not named in the record; active = well fitted activation curve with a large enough effect; inconclusive = small, poorly fitted or top-dose-only effect, or another doubt; inactive = no such curve, though single readings can be large or run the other way; cell line not stated here;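 note: phosphodiesterase inhibitor Ro 20-1724 added with compounds to block cAMP breakdown; potency is the fitted concentration of half-maximal effect; nearly all actives have a fitted effect of over 60% in size; about a fifth of the inactives were tested at one dose only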
#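 Cells in DMEM/10% FBS with G418 were pretreated with compounds in DMSO plus […] (300 uM stock) for 30 min at 37C. cAMP was measured by HTRF (cAMP-d2 plus anti-cAMP antibody-K) after 30 min at room temperature.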
# gsp antagonist: antagonizes gsp, the McCune-Albright syndrome mutation | gsp-mutant cells, cAMP HTRF, 30 min; control for the full effect not named in the record | Potency, µM (titrated, usually from 76.9 µM), for inactives: at the highest dose activity change, negative = inhibition, most hits filed as inhibitors | actives 0.4% (n = 340,000) | AID 624288; active = falling curve of any shape with a large fitted effect; inconclusive = falling curve, mostly with a smaller effect; inactive = flat or rising curve; cell line not stated here;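 note: intracellular cAMP measured with PDE inhibitor Ro 20-1724 present during compound exposure; potency is the fitted concentration of half-maximal effect; % is set by controls: 0 for no effect and ±100 for the full control effect; nearly all actives have a fitted effect of over 65% in size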
#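 HTRF cAMP measurement after 30 min RT detection following 30 min, 37C compound treatment alongside […] (added as 300 uM solution) in G418-selected cells seeded at 2000/well and grown 16–24 h.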
# TRPML1 blocker: blocks the human TRPML1 channel. TRPML1-inducible cells, Ca2+ dye fluorescence, FDSS; stronger effect = lower value; inhibition of EC80 agonist-evoked calcium signal. Q9GZU1. actives 0.02% (n = 390,000). activity change, negative = inhibition, % (test concentration not listed); in the data active means activity change below about -50%; inconclusive means about -30% to -50%; inactive means above about -30%;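 note: stimulus is agonist 54-4 at its EC80 concentration; % is set by controls: 0 for no effect and ±100 for the full control effect; compound concentration not given in the record; the text of the record puts the active cut at -80%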
#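 Calcium fluorescence in TRPML1-DL cells induced overnight with Tet: a 110 s read after compound pin addition, then a 110 s antagonist read after challenge with 54-4 at 4 uM final (EC80).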
# * hit, by the source's call; ? = inconclusive; . = no result given; [ ] = remark or other dose. This is a random part of the collection; about 2.1% have a hit in one of these screens.
compound,Menin-MLL FL inh,gsp antagonist,TRPML1 blocker,gsp ag,ClpP mod,TRPML1 agonist
Cc1cc(=O)oc2n[nH]c(-c3ccccc3)c12,-5.9,7%,4,?,25µM*,1.3
COc1cc(S(=O)(=O)N2CCOCC2)ccc1F,0.8,3%,-14,-27%,-1.8%,-0.3
CCOc1ccccc1-n1c(SCC(=O)Nc2nccs2)nnc1-c1ccoc1C,1.2,-13%,14,-28%,-3.2%,2.6
CC(C)CCOc1ccc(Oc2nc(N(C)C)nc(N(C)C)n2)nn1,.,.,4,.,-3.3%,2.3
CCOC(=O)C1(C(=O)OCC)CCN(S(=O)(=O)c2ccccc2)CC1,.,-4%,31,10%[15.4 µM],1.1%,-0.3
CN(C(=O)CSc1nnn(C)n1)c1ccccc1,.,14%,39,14%,0.1%,-0.6
Nc1ccc(-c2nnc(-c3ccccc3)o2)cc1,2.5,7%,23,?,.,-0.9
CCOC(=O)c1cc2c(=O)n3ccccc3nc2n(CC2CCCO2)c1=NC(=O)/C=C/c1ccccc1 (configuration not stated),2.4,-23%,0,6%[15.4 µM],-1.1%,1.6
Cc1sc(NC(=S)NC(=O)c2ccco2)c(C#N)c1C,11,0%,-2,2%[15.4 µM],.,-1.2
CCOC(=O)CC[C@H](NC(=O)Cn1cc(C)c(=O)[nH]c1=O)C(=O)OCC,.,0%,-3,.,-0.1%,-0.5
CC(C)[C@H](NC(=O)c1ccc(Cl)cc1Cl)C(=O)OCc1nc2ccsc2c(=O)[nH]1,.,10%,-7,-22%,1.2%,0.3
O=C1CCCC2=C1C(c1cccs1)n1nc(SCc3ccc(C(=O)O)cc3)nc1N2 (configuration not stated),1.7,1%,5,2%,3.2%,-0.4
c1ccc(-c2cc(-c3nnc4n3N=C(c3ccc5ccccc5c3)CS4)[nH]n2)cc1,5.7,-6%,-1,-4%,1.8%,-0.5
Cc1ccc(-c2ccc(CCC(=O)O)n2-c2ccc(C(C)C)cc2)cc1,.,.,11,.,-29%,-0.5
O=C1NCC(c2ccccc2)C1C(=O)N/N=C\c1ccc(-c2ccc(Cl)c(Cl)c2)o1 (configuration not stated),4.9,-7%,5,-36%[inhibitor],-21%,-1.7
COc1ccc(OC)c(NC(=O)CCNC(=O)Cn2ccc3ccccc3c2=O)c1,2.6,2%,7,-14%,.,-0.6
Cc1cccc(-c2nnn(CC/C(N)=N/O)n2)c1,1.6,14%,7,-15%,0.6%,-0.6
Cc1ccc(/C=[N+](/[O-])C2SC(=S)N(C)C2(C)C)cc1 (configuration not stated),-2.8,0%,11,-49%[inhibitor],-3.3%,0.0
Cc1ccc(C(=O)N/C(=C/c2ccc(C(C)C)cc2)C(=O)NCCCN2CCOCC2)cc1,-0.9,4%,4,14%,-0.1%,-0.2
COc1ccc(CNC(=O)/C=C/c2ccccc2[N+](=O)[O-])cc1,-1.9,56%[activator],-3,-19%,-2.9%,-0.4
Cc1cc(C)c2sc(NNC(=O)c3ccc(S(=O)(=O)N4CCc5ccccc5C4)cc3)nc2c1,3.5,-9%,5,-27%,-2.0%,0.7
CCOC(=O)C1CCCN(CCC(=O)Nc2c(C(=O)OC)[nH]c3cc(OC)ccc23)C1 (configuration not stated),2.0,-8%,-1,1%,-26%,-1.2
Cc1nn2c(c1-c1ccc(Cl)cc1)N=C(c1ccco1)CC2c1ccccc1 (configuration not stated),15,-10%,48,-6%,-1.6%,-0.1
Cn1c(=O)n(CC(=O)Nc2ccc(F)cc2)c2ccccc21,2.6,6%,-10,-8%,1.6%,0.4
COc1ccc(N2C(=O)CC(N3CCN(S(=O)(=O)c4cc(C)ccc4C)CC3)C2=O)cc1 (configuration not stated),-1.7,-11%,21,3%,.,0.5
CCOC(=O)COn1c(=O)c(C)[n+]([O-])c2ccccc21,-0.3,1%,5,24%,-4.6%,0.8
CCOC(=O)c1cc2cc(F)ccc2nc1C,-0.1,-3%,-1,3%,2.0%,-0.5
CN(Cc1ccccc1)C(=O)CSc1nnc(-c2cccc(Cl)c2)o1,.,.,6,.,0.9%,3.1
O=C(/C=C/c1cn(CC(O)CN2CCCCCC2)c2ccccc12)c1ccccc1 (configuration not stated),.,.,4,.,-3.2%,5.3
Cc1cc(C)cc(NC(=O)CSc2nc3ccccc3nc2N2CCCC2)c1,2.1,-14%,-15,-6%,-17%,1.1
N#Cc1cccnc1N1CCC(C(N)=O)CC1,4.0,4%,-2,9%,4.0%,-0.5
O=C(CCc1nc(-c2ccc(Cl)cc2)no1)NCc1ccccc1CN1CCOCC1,.,3%,-3,11%,0.3%,0.5
COc1ccc(OCC#CCNC(C)(C)C)cc1,3.7,2%,2,3%,-2.5%,0.4
O=C(Oc1ccc2c(=O)c(Oc3ccc4ccccc4c3)coc2c1)c1cccnc1,3.0,-6%,-4,-7%[15.4 µM],7.1%,-0.7
COc1ccc(S(=O)(=O)N(CCc2ccccc2)CC(=O)NCCCO)cc1,-2.8,-2%,-12,9%,-1.6%,0.1
Cc1ccc(C)n1NC(=O)c1ccc(Cl)cc1Cl,-1.5,3%,7,14%,2.8%,-0.2
Cc1ccc(C)c(Cn2c(CO)nc3ccccc32)c1,1.0,-10%,?,-22%,-2.4%,0.6
Cn1nnc(-c2ccc(OCc3ccccc3F)cc2)n1,2.0,-8%,5,5%,1.9%,-0.4
O=C(NCCC1=CCCCC1)C(c1ccccc1)c1ccccc1,4.5,-5%,-4,-21%,0.2%,3.6
O=C(Nc1ccnn1C1CCN(CCCC2CCCC2)CC1)c1ccccc1Cl,-12,6%,1,?,1.0%,-0.8
Cc1ccc(S(=O)(=O)NCC(=O)OCC(=O)N(C)C2CCS(=O)(=O)C2)cc1 (configuration not stated),.,14%,8,0%[15.4 µM],-2.1%,0.7
Cc1nc2c(c(C)nn2-c2ccccc2)c(C)c1CCC(=O)Nc1ccc(CN2CCCC2)cc1,2.9,4%,47,-7%[15.4 µM],.,-0.3
Cc1ccc(CSC2=NCCN2S(=O)(=O)c2ccccc2)cc1,4.4,-13%,36,-146%[inhibitor],0.0%,2.3
Cc1ccc(NC(=O)C2CCN(C(=O)c3ccc(F)cc3)CC2)nc1,.,-9%,2,-17%[15.4 µM],.,0.6
COc1ccccc1/C=C\C(=O)NCC(=O)N/N=C/c1cccc(OC)c1O,1.3,-13%,-5,-85%[inhibitor],-14%,0.7
O=S(=O)(c1ccc(OCc2ccc(Br)cc2)cc1)N1CCOCC1,.,9%,12,9%,-0.5%,1.2
CC(C)Cc1ccc(S(=O)(=O)Nc2cccnc2)cc1,3.0,0%,5,4%,-0.6%,1.4
Cc1cccc(OCC(=O)NCCNC(=O)c2ccccn2)c1,3.4,4%,-16,2%,.,3.3
CCOC(=O)C1=CN(Cc2ccco2)S(=O)(=O)N(C)C1CC (configuration not stated),.,1%,-9,.,-2.5%,1.4
COc1ccc(OCC(O)CNS(=O)(=O)c2ccc(C)cc2)cc1 (configuration not stated),0.5,-4%,27,12%,-0.2%,2.2
CN(Cc1ccccc1)CC(O)COc1ccc(CNCc2nccn2C)cc1 (configuration not stated),-6.9,6%,10,2%[15.4 µM],.,0.0
CCOC(=O)C1CCCN(Cc2cccs2)C1 (configuration not stated),3.7,7%,10,19%,-3.8%,-0.6
CCCc1nnc(SCC(=O)N2CCCCC2C)n1CC1CCCO1 (configuration not stated),-0.1,1%,-15,12%,1.5%,-0.7
COc1cccc(CNC(=O)CCc2nc3cc(S(=O)(=O)N4CCOCC4)ccc3n2C)c1,.,-2%,-11,-3%[15.4 µM],.,-0.6
COc1cccc(NC(=O)CNc2cc(S(=O)(=O)N3CCOCC3)ccc2N2CCCC2)c1,.,-19%,18,-7%,-2.4%,-0.2
CCC1C(=O)Nc2ccccc2N1C(=O)COc1ccccc1 (configuration not stated),-0.8,-4%,-8,16%,-1.3%,-0.6
NC(=O)c1nc[nH]c1C(=O)Nc1cccc(C(F)(F)F)c1,.,8%,13,19%,12%,-0.2
COc1cc2[nH]c(=O)n(CCCCCC(=O)N3CC=C(c4ccccc4)CC3)c(=O)c2cc1OC,-2.1,?,6,-3%,18µM*,0.8
Cc1ccccc1C(=O)Nc1ccccc1-c1nnn(CC(=O)Nc2ccc3c(c2)OCCO3)n1,6.1,-2%,12,-41%[inhibitor],-12%,0.2
COC(=O)c1cc(OC)c(OC)cc1NC(=O)C(C)Sc1ccc(C)cc1 (configuration not stated),4.3,-15%,-3,-20%,-8.8%,0.2

# New compounds follow:
compound,Menin-MLL FL inh,gsp antagonist,TRPML1 blocker,gsp ag,ClpP mod,TRPML1 agonist
Cc1[nH]c2c(Cl)cccc2c(=O)c1CN1CCCC1,8.9,9%,-5,8%,-8.2%,-0.3
CCC1(CC)N=C(c2ccccc2)C(=S)N1,-0.4,-2%,-7,-7%,-1.3%,-0.8
CC(C)(C)OC(=O)N1CCC(c2nnc(SCc3ccccc3)o2)CC1,.,.,1,.,0.0%,1.3
C=C1CCN(C(C)C(=O)OCc2ccc(C)cc2)S(=O)(=O)c2ccccc21 (configuration not stated),2.0,.,78,.,.,2.7
O=C1CCC(=O)N(O)CCCCCNC(=O)CCC(=O)N(O)CCCCNC(=O)CCC(=O)N(O)CCCCCN1,-0.1,8%,7,-21%,0.5%,0.1
CCC(C)(C(=O)Nc1ccc2c(c1)OCCO2)N(C(C)=O)c1ccc(C(N)=O)cc1 (configuration not stated),2.2,13%,-2,-38%[inhibitor],0.5%,0.2
O=C(N/N=C/c1ccccc1F)c1cccc(NC(=O)c2ccccc2Cl)c1,4.8,-20%,-2,6%,.,-0.4
CCn1c(=O)c2ccccc2n2c(SCC(N)=O)nnc12,0.0,13%,9,6%,.,0.3
O=C(CN(C1CCCCC1)S(=O)(=O)c1ccc(Cl)cc1)N1CCOCC1,0.8,8%,7,-27%,-1.9%,0.1
Cc1[nH]nc(Nc2ccc(O)cc2)c1[N+](=O)[O-],-1.1,11%,29,-8%[15.4 µM],.,0.1
Cc1ccc(S(=O)(=O)N(C)C)cc1NC(=O)COC(=O)CCNS(=O)(=O)c1ccccc1,.,6%,15,-5%,0.5%,-1.0
O=C(CNC(=O)c1ccccc1)N/N=C/c1cc(Br)ccc1O,.,-5%,4,10%[15.4 µM],2.8%,-0.5
